UCH37 inh = inhibitors of human UCH37 deubiquitinase, primary screen, biochemical, Ub-AMC cleavage, fluorescence | Ubiquitin carboxyl-terminal hydrolase isozyme L5 (Homo sapiens), Q9Y5K5 | purified proteasome/UCH37 | inhibition, % (concentration not given with the values) | 0.33% of 330,000 active | AID 588478, 2011;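 active = mean of two replicates above 20%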;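 also: 0% = compound-free wells with enzyme and 100% = wells lacking proteasome; stock transfer was 100 nL into about 20 µL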
Target sequence (Q9Y5K5 whole entry, looked up): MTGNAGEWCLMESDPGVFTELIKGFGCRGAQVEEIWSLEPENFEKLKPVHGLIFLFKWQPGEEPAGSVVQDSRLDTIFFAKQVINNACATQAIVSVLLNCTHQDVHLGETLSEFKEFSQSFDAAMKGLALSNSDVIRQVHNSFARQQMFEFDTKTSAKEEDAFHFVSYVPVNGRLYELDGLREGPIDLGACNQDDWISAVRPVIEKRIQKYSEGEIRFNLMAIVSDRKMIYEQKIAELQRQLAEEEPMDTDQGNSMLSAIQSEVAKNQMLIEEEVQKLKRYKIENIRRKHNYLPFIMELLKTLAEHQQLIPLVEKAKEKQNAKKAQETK
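System: Proteasome-associated human UCH37 deubiquitinase; Input: 0.15 nM proteasome in added enzyme buffer; Also added: Ub-AMC substrate from 1 µM stock; Incubation: 30 min compound-proteasome preincubation then 25 min substrate reaction, room temperature; Detection: fluorescence, ex 355 nm, em 460 nm; Read-out: % inhibition of Ub-AMC cleavage fluorescence; Benchmarks: no-proteasome and no-compound wells.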
FGF22 binding = binders of human FGF22 protein, primary screen, FGF22 synaptogenesis inhibitor project, biophysical, thermal shift, single point; calls only at 9.99 µM; Fibroblast growth factor 22 (Homo sapiens), Q9HCT0; AID 651658, 2012; recombinant FGF22 thermal shift, SYPRO orange fluorescence; percent of sucrose octasulfate shift, DMSO zero; 1.5% of 340,000 active;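 active = melting point raised past a set limit in the mean and every replicate; inconclusive = no clear call; three in four hits are not shown here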
Target sequence (Q9HCT0 whole entry, looked up): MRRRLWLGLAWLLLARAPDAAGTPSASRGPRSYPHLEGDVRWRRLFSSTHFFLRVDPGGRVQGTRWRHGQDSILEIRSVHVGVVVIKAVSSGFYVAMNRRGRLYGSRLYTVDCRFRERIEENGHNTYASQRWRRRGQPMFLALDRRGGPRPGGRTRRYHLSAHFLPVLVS
Ecoli growth = E. coli growth inhibition, primary screen, OD600. Escherichia coli growth, 23 h; hits give low values. OD600 absorbance (concentration not given with the values). 0.21% of 330,000 active;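 active = OD600 absorbance below the run mean of sample wells minus 3.6 SD, in any replicate, cut at about 0.56 in these data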;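 also: stock transfer was 300 nL into about 60 µL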
AF4-AF9 inh = inhibitors of AF4 peptide binding to AF9, primary screen, biochemical, AlphaScreen, biotin-AF4 peptide, FLAG-AF9, single point. AID 651704, 2012. Protein AF-9 (Homo sapiens), P42568. 0.47% of 350,000 active. inhibition, % at 10 µM;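 active = every replicate reaching a set inhibition limit, whatever the replicate mean, cut at about 25% in these data; inconclusive = mean inhibition reaches that limit but some replicates miss it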;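 also: 0% = plate neutral control median and 100% = total signal loss; the record names both 10 and 1 µM as test concentration; the first replicate is given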
Target sequence (P42568 whole entry, looked up): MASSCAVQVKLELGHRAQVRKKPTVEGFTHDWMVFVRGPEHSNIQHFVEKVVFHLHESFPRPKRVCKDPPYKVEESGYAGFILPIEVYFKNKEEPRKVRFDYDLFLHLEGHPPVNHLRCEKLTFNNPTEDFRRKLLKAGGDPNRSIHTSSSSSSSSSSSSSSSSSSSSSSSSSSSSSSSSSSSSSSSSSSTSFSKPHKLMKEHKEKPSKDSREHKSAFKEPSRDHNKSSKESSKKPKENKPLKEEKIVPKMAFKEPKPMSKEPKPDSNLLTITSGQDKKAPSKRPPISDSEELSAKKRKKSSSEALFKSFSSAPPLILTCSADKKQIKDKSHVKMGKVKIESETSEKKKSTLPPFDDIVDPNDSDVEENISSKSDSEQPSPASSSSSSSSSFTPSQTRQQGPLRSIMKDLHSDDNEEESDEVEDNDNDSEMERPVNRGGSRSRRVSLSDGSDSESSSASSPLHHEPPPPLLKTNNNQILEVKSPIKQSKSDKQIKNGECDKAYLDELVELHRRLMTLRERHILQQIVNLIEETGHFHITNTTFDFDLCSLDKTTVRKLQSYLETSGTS
Vif TR-FRET = inhibitors of Vif binding to APOBEC3G peptide, primary screen, biochemical, TR-FRET, GST-Vif 1-94, biotin-A3G peptide, dose response retest (AID 1117319) | 0.57% of 260,000 active | inhibition, %; hits with a dose series show IC50 in µM | Virion infectivity factor (Human immunodeficiency virus type 1 group M subtype B (isolate … | TR-FRET GST-Vif / biotin-A3G peptide binding; higher % means a stronger effect; test concentration not given here; strong numbers were not always called active;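 active = above the screen mean plus three standard deviations and confirmed in dose response; inconclusive = results disagree or hit not tested in dose response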;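 also: Vif residues 1-94 fused to GST binding biotinylated APOBEC3G peptide 110-148; 0% = full assay without inhibitor and 100% = GST in place of GST-Vif; retest series ran down from 100 µM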
HNF4A DNA FP = change in binding of human HNF4A to DNA, primary screen, biochemical, fluorescence polarization, FITC-DNA. Hepatocyte nuclear factor 4-alpha (Homo sapiens), P41235. 1 h. activity change, % at 10 µM. 0.3% of 360,000 active. AID 1224865, 2016; in the data active = activity change above about 30%, passing the limit was not always enough;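 also: controls were the assay level and a saturating level of protein; the project sought stronger binding though the title names inhibitors; some compounds called inactive have numbers as strong as hits; positive values seem to mean higher polarization but the record does not say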
RanGTP-Imp inh = inhibitors of RanGTP-importin-beta interaction, primary screen, biochemical, FRET, CFP-Ran, YFP-importin-beta, homogeneous | Ran GTPase (GTP-bound) - importin-beta complex | cell-free CFP-Ran/YFP-importin-beta FRET ratio | 1.1% of 300,000 active | inhibition, % (concentration not given with the values);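 active = most replicates above 15%; inconclusive = exactly half above 15%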;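 also: 0% = DMSO wells and 100% = Ran loaded with GDP instead of GTP; wells of about 40 µL received 100 nL stock; the first replicate is given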
* hit, by the source's call; i = inactive; ? = inconclusive; nt = no result given; & = joins results of further samples.

SMILES,UCH37 inh,FGF22 binding,Ecoli growth,AF4-AF9 inh,Vif TR-FRET,HNF4A DNA FP,RanGTP-Imp inh
COc1ccc(CNC(=O)c2ccc3c(c2)N(C)CCS3)cc1,-78,i,0.65,15,nt,-5.8,3.6
Cc1ccc(S(=O)(=O)N2CCC(C(=O)C3C(=O)CC(C)(C)CC3=O)CC2)cc1,-0.2,i,0.67,-2.1,0%,-0.4,-1.4
Cc1ccc(S(=O)(=O)N(C)C)cc1NC(=O)c1cc(-c2ccncc2)nc2ccccc12,7.3,i,0.71,-1.6,nt,1.3,nt
Cc1cccc(CCNC(=O)CCNS(=O)(=O)c2cc(Br)cnc2N)c1,-0.8,i,0.69,0.3,3%,-2.0,-0.8
CCOc1cc(/C=N/NC(=O)c2ccc3c(c2)OCCO3)cc(Br)c1O,nt,nt,nt,-2.6,nt,11,-5.9
Cc1ccn(CC(=O)NC2CCCN(Cc3ccc(CC(C)C)cc3)C2)n1 (stereo unspecified),2.7,i,0.66,0.3,nt,0.6,1.3
C[C@]1(CO)CCC[C@@]2(C)C1CC[C@@H](CO)[C@@H]2CCc1ccoc1 (stereo partly specified),3.4,i,0.69,1.2,3%,2.7,-0.2
Cc1cccnc1C1=NOC(Cc2ccccc2)C(=O)N1Cc1ccc2c(c1)OCO2 (stereo unspecified),nt,i,nt,5.1,nt,1.6,nt
CC1CCCCN1C(=O)CSc1nc2ccccc2[nH]1 (stereo unspecified),0.9,i,0.74,-1.8,-6%,-0.7,-4.0
O=C1CCCc2oc3ccc(NS(=O)(=O)c4cccc5cccnc45)cc3c21,1.2,i,0.66,-0.4,-2%,-2.5,1.7
CCOC(=O)C1CCN(C(=O)c2ccc(N(C)S(=O)(=O)c3ccc(OC)cc3)cc2)CC1,0.7,i,0.71,-1.9,nt,5.4,-2.6
COC(=O)COc1cc(Br)c(/C=C2/SC(=O)N(CC(=O)N3CCCC3)C2=O)cc1OC,1.0,nt,0.72,nt,-7%,0.6,1.9
Cn1c(SCC2CCCO2)nnc1-c1cccc([N+](=O)[O-])c1 (stereo unspecified),0.9,i,0.65,-2.1,nt,-3.8,-1.3
O=C(NCc1cccnc1)c1ccc(NC(=O)c2ccc(Br)cc2)cc1,1.2,i,0.65,0.4,nt,2.6,5.4
O=C(/C=C/c1ccc(O)c(O)c1)OCCc1ccccc1,0.5,i,nt,12,nt,1.3,-2.9
O=C(NC1CCCCCC1)c1ccc(Br)o1,0.0,i,0.68,-0.2,nt,-1.7,-1.1
N#CCCN(Cc1ccccc1)C(C(=O)NC1CCCCC1)c1cc2ccccc2o1 (stereo unspecified),nt,i,nt,-1.9,nt,2.7,nt
Cc1c(NC(=O)C(C)N2CC(C)OC(C)C2)c(=O)n(-c2ccccc2)n1C (stereo unspecified),2.0,nt,0.68,nt,2%,2.5,-3.7
O=C(CN1CCN(S(=O)(=O)c2cc(Br)ccc2Br)CC1)NCc1ccccc1Cl,2.9,i,0.7,2.9,nt,1.1,nt
O=C(COc1ccc2ccccc2c1)Nc1ccc2c3c(cccc13)CC2,-9.6,i,0.69,-0.7,-10%,1.4,-1.6
NC(=O)C1(N2CCCCC2)CCN(CC(=O)Nc2cc(Cl)ccc2Cl)CC1,0.6,i,0.73,3.5,-1%&1%,8.9,-4.6
C#CCOCCOCCOCCNc1nc(N2CCN(C(=O)[C@H]([C@@H](C)CC)n3cc([C@@H](N)CC(C)C)nn3)CC2)nc(N2CCN(C(=O)[C@H](CCCCN)n3cc([C@@H](N)CO)nn3)CC2)n1,4.1,nt,nt,nt,4%,-3.4,2.2
Cc1ccc(S(=O)(=O)NCCC(=O)Nc2cccc(Cl)c2)cc1,3.1,nt,0.7,nt,-4%,-1.1,-0.1
O=C(Nc1ccc(CCC(=O)N2CCCC2)cc1)c1ncn[nH]1,-0.5,nt,0.74,nt,5%,0.7,?
COc1cccc(NC(=O)[C@H](C)NC(=O)N2CCn3c2nc2ccccc23)c1,3.0,i,0.72,0.3,-3%,0.5,-0.3

Later entries.
SMILES,UCH37 inh,FGF22 binding,Ecoli growth,AF4-AF9 inh,Vif TR-FRET,HNF4A DNA FP,RanGTP-Imp inh
C/C(=N/NS(=O)(=O)c1ccc(C)cc1)c1cccc(NC(=O)c2cccc(Cl)c2)c1,nt,nt,nt,nt,0%,1.1,2.5
Cc1c(NC(=O)C(C)Sc2ncnc3ccccc23)c(=O)n(-c2ccccc2)n1C (stereo unspecified),6.5,i,0.68,-0.8,12%,-1.9,-1.3
C[C@H](NC(=O)CC[C@H]1O[C@@H](n2ccc(=O)[nH]c2=O)[C@H](O)[C@@H]1O)c1cccc2ccccc12,nt,i,nt,0.9,nt,1.9,nt
CCN(CC)S(=O)(=O)c1ccc(-n2cnc3cc(C)c(C)cc32)nc1,2.9,i,0.67,-0.8,nt,2.5,0.6
CC1=CC(c2ccc(Cl)cc2)n2nc(NC(=O)CCCC(=O)O)nc2N1 (stereo unspecified),-453,i,0.67,-20,nt,-1.1,?
COc1ccc(C(=O)CSc2cc(C)[nH]c(=O)n2)cc1,4.5,i,0.68,-1.9,nt,6.5,0.7
COc1cc(CNc2ccc3[nH]c(=O)[nH]c3c2)ccc1OCc1ccc(F)cc1,-3.6,i,0.71,4.9,nt,1.4,4.6
COC(=O)CSc1nnc(-c2ccccc2OC)n1-c1ccc(C)cc1,1.0,nt,0.68,nt,73%,0.2,-0.6
CCOc1ccc(NC(=O)CN(C)C(=O)c2cccc(S(=O)(=O)N3CCN(C)CC3)c2)cc1OCC,1.8,i,0.69,0.0,nt,0.0,nt
CC(=O)Oc1ccc(N2C(=O)C3C4C=CC(O4)C3C2=O)cc1 (stereo unspecified),1.7,nt,0.72,nt,0%,-3.1,1.9
C[C@H](O)[C@@H]1C(=O)N2CCc3c([nH]c4ccccc34)[C@@H]2C[C@@H]1N(C)C(=O)Nc1cccc2ccccc12,nt,i,nt,4.1,nt,2.7,nt
CC(NC(=O)CN1CCOCC1)c1ccc(F)cc1 (stereo unspecified),1.1,i,0.65,-2.5,-6%,-2.6,-4.1
Cc1nonc1CC(=O)N1CCc2c([nH]c3ccccc23)C1c1ccccc1F (stereo unspecified),-1.0,i,0.69,7.6,27%,-4.7,0.0
CC(C)(C)OC(=O)N1CCc2onc(-c3ccccc3F)c2C1=O,nt,i,nt,-5.8,nt,4.5,nt
CCOc1ccc(Cn2c(=O)oc3ccc(C)cc32)cc1OC,-0.8,nt,0.71,nt,-3%,0.2,-2.1
COC(=O)C(NC(=O)c1ccccc1)(Nc1cc(C)cc(C)n1)C(F)(F)F (stereo unspecified),4.7,nt,0.67,nt,-5%,-0.5,-1.0
CC1CC(C)CN(CCCNC(=O)C2CCCN(S(=O)(=O)N3CC(C)CC(C)C3)C2)C1 (stereo unspecified),0.8,i,0.64,-0.6,nt,3.8,0.6
Cc1ccccc1Cn1c(=N)n(CC(=O)c2ccco2)c2ccccc21,2.5,nt,0.67,nt,5%,3.1,5.1
CCCCCNC(=O)c1ccccc1SC,1.0,nt,0.71,nt,-2%,-2.6,0.6
CCCS(=O)(=O)c1c(S(=O)(=O)CCC)c2c(C(N)=O)cccn2c1C(=O)c1ccc(F)cc1,3.5,i,0.7,0.6,0%,-1.6,0.2
COc1ccc(Cl)cc1NC(=O)COc1ccc(S(=O)(=O)N2CCOCC2)cc1C,5.2,i,0.71,2.0,-3%,-5.3,-3.2
O=C1CN(C(=O)c2cnccn2)c2ccccc2N1,-3.3,nt,0.73,nt,12%,-3.2,-0.4
CC(C)n1c(SCC(=O)Nc2ccccc2)nc2c1c(=O)[nH]c(=O)n2C,6.8,i,0.7,-1.5,nt,-1.2,3.1
CN(CC(=O)Nc1cccc(F)c1)C(=O)CCNC(=O)c1ccco1,6.5,i,0.69,-14,-3%,0.9,-1.2
Cc1cccc(/C(N)=N/OC(=O)c2ccncc2)c1,2.0,i,0.73,0.2,3%,-2.4,1.6

Pulled by compound from the entries so far (2):
SMILES,UCH37 inh,FGF22 binding,Ecoli growth,AF4-AF9 inh,Vif TR-FRET,HNF4A DNA FP,RanGTP-Imp inh
CCOc1ccc(Cn2c(=O)oc3ccc(C)cc32)cc1OC,-0.8,nt,0.71,nt,-3%,0.2,-2.1
CC(=O)Oc1ccc(N2C(=O)C3C4C=CC(O4)C3C2=O)cc1 (stereo unspecified),1.7,nt,0.72,nt,0%,-3.1,1.9

Additional records.
SMILES,UCH37 inh,FGF22 binding,Ecoli growth,AF4-AF9 inh,Vif TR-FRET,HNF4A DNA FP,RanGTP-Imp inh
CC(=O)N(Cc1ccccc1)C1CC(=O)N(Cc2ccccc2)C1=O (stereo unspecified),-1.3,nt,0.71,-3.7,-3%,4.0,nt
O=C(O)CC(CC(=O)N1CCOCC1)c1ccccc1 (stereo unspecified),-2.2,i,0.68,2.7,-13%,2.5,-2.8
CCOC(=O)CSc1nnc(NC(=O)NC(C)C)s1,0.0,i,0.69,-0.2,-2%,5.8,-0.4
Cn1nc(Oc2ncc(C(F)(F)F)cc2Cl)cc1C(F)(F)F,5.1,nt,0.67,-3.2,?,0.8,?
NC1=NN(c2ccccc2)C(=O)C1,2.1,i,0.69,-3.3,-1%,3.7,nt
COCCN(C(=O)COC(=O)c1cccnc1SC)c1c(N)n(Cc2ccccc2)c(=O)[nH]c1=O,nt,i,nt,-16,nt,-0.7,1.0
CCCNC(=O)NCCc1ccncc1,4.5,nt,0.72,nt,2%,0.0,0.3
CC(C)c1ccccc1NC(=O)COC(=O)Cc1c[nH]c2ccccc12,0.7,nt,0.7,nt,nt,7.8,?
CC(=O)Nc1ccc(NC(=O)C2(C)Cc3c(-c4cccc(NC(C)=O)c4)ccnc3O2)cc1 (stereo unspecified),nt,i,nt,2.1,nt,-3.1,nt
Cc1ccccc1N/N=C1\CCCNC1=O,nt,nt,nt,nt,8%,-0.5,-0.5
COc1ccc([N+](=O)[O-])cc1N(CC(=O)Nc1ccccc1C(=O)NC(C)C)S(C)(=O)=O,-0.4,i,0.69,-2.1,0%,-0.9,3.0
COc1cc(/C=C/C(=O)OCC(=O)NCCc2ccccc2)ccc1OC(F)F,-3.8,i,0.72,-1.0,nt,0.9,0.5
Cc1ccc(S(=O)(=O)c2nc(Nc3ccccc3C#N)sc2Cl)cc1,2.0,i,0.72,0.1,-40%,1.3,-2.8
O=C(/C=C/c1ccco1)Nc1cccc(C(=O)Nc2ccccc2C(=O)O)c1,6.3,i,0.69,-7.9,nt,-32,-0.9
O=C(Nc1cccc(C(F)(F)F)c1)C1CCN(S(=O)(=O)c2cccnc2)CC1,3.8,i,0.7,-1.8,-2%,1.5,1.2
C=CCNC(=S)Nc1sc2c(c1C(N)=O)CCCC2,nt,i,nt,2.7,-12%,4.4,0.6
C=CCNS(=O)(=O)c1ccc(OC)c(C)c1,4.0,nt,0.66,nt,-5%,0.2,?
Cc1cccc(COCC(CC(C)C)N2CCN(C(=O)c3ccc(C(C)(C)C)cc3)CCC2=O)c1 (stereo unspecified),1.5,i,0.69,1.1,3%,-1.6,8.7
O=[N+]([O-])c1cc(C2Nc3cccc4cccc(c34)N2)ccc1Cl,0.3,i,0.7,5.8,nt,-0.1,-0.8

Some of the compounds tested. The share of hits here may be higher or lower than overall.
